Assay outcomes deposited in PubChem BioAssay by Broad Institute.
Beta cell apopt: inhibitors of cytokine-induced beta cell apoptosis, primary screen, luminescence. INS-1E cytokine-induced death, ATP luminescence, 48 h; percent of positive-control rescue, neutral wells zero. protection from apoptosis, % (concentration not given with the values). 0.8% of 300,000 active. AID 435005, 2010;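 active = all replicates at 75% or more, or half of them and the mean; inconclusive = half reach 75% but not the mean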;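 also: 0% = cytokine-treated negative control wells and 100% = positive control rescue; higher means more ATP so stronger rescue from cytokine killing; wells of about 40 µL received 100 nL stock; the first replicate is given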
MLL AF4-AF9 inh: inhibitors of AF4 peptide binding to AF9, primary screen, biochemical, AlphaScreen, biotin-AF4 peptide, FLAG-AF9, single point; 0.47% of 350,000 active; inhibition, % at 10 µM; Protein AF-9 (Homo sapiens), P42568;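 active = every replicate reaching a set inhibition limit, whatever the replicate mean, cut at about 25% in these data; inconclusive = mean inhibition reaches that limit but some replicates miss it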;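 also: 0% = plate neutral control median and 100% = total signal loss; the record names both 10 and 1 µM as test concentration; the first replicate is given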
Target sequence (P42568 whole entry, looked up): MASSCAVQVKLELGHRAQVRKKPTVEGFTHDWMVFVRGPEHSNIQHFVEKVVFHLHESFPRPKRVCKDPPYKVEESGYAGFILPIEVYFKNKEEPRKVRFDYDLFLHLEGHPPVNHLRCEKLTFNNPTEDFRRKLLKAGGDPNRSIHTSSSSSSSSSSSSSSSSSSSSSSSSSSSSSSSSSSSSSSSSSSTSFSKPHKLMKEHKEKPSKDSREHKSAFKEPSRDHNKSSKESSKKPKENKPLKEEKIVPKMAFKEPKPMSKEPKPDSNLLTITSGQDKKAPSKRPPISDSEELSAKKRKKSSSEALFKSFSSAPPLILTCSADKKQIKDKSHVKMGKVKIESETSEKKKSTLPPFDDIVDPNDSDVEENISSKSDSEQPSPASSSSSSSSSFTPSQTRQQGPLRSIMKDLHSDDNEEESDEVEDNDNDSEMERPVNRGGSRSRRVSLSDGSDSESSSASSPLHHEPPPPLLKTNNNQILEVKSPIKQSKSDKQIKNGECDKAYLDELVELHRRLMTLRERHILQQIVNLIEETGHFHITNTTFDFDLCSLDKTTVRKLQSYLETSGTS
ALR inh: inhibitors of human ALR sulfhydryl oxidase, primary screen, biochemical, H2O2 detection, HRP-luminol luminescence, single point; 3.8% of 290,000 active; purified ALR, DTT oxidation; inhibition, % (test concentration not listed); FAD-linked sulfhydryl oxidase ALR (Homo sapiens), P55789; AID 485317, 2010;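 active = mean and each replicate at 75% or more; inconclusive = only one of the two met; inactive = neither met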;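 also: stock transfer was 7.5 nL into about 7.5 µL; 0% = neutral wells and 100% = wells with inactivated enzyme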
Target sequence (P55789 whole entry, looked up): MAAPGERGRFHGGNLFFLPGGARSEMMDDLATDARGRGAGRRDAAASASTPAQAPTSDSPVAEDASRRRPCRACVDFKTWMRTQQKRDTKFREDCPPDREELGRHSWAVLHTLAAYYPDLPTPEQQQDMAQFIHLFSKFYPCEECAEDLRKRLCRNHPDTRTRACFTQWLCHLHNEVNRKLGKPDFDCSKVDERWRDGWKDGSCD
T cruzi inh: inhibitors of intracellular T. cruzi growth, primary screen, luminescence, NIH3T3 host cells | T. cruzi beta-gal in NIH3T3, 90 h | 1.4% of 300,000 active | inhibition, % (test concentration not listed);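 active = mean inhibition across valid replicates above about 55%, limit read from the data; inconclusive = mean below that limit but half or more replicates reach it; inactive = mean below it, under half of replicates reach it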;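 also: signal also drops with host cell toxicity which is not excluded here; 0% = plate median of DMSO wells and 100% = zero luminescence signal; higher percent means less beta-gal luminescence so fewer parasites; stock transfer was 50 nL into about 50 µL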
Ecoli rRNA inh: reduced GFP signal of wild-type E. coli, primary screen, bacterial rRNA inhibitor project, GFP/RFP fluorescence, OD600, single point; AID 720706, 2013; 1.6% of 350,000 active; GFP signal change (wild-type ribosome), % (test concentration not listed); E. coli WT GFP vs humanized-ribosome RFP mutants, 24 h; hits give low values; DMSO median 0, no signal -100;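 active = significant combined selectivity score with lowered wild-type GFP, culture density cut under 30%, mutant RFP and density less affected; inactive = any of these conditions unmet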; also: one replicate is shown; some compounds called inactive have numbers as strong as hits
FGF22 binding: binders of human FGF22 protein, primary screen, FGF22 synaptogenesis inhibitor project, biophysical, thermal shift, single point | Fibroblast growth factor 22 (Homo sapiens), Q9HCT0 | recombinant FGF22 thermal shift, SYPRO orange fluorescence; percent of sucrose octasulfate shift, DMSO zero | calls only at 9.99 µM | 1.5% of 340,000 active | AID 651658, 2012;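 active = melting point raised past a set limit in the mean and every replicate; inconclusive = no clear call; three in four hits are not shown here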
Target sequence (Q9HCT0 whole entry, looked up): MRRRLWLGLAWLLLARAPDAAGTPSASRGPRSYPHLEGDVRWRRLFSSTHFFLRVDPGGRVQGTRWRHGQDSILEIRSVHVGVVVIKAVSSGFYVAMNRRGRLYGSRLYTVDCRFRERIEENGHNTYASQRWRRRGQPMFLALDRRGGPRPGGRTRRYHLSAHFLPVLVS
RanGTP-Impb inh: inhibitors of RanGTP-importin-beta interaction, primary screen, biochemical, FRET, CFP-Ran, YFP-importin-beta, homogeneous; Ran GTPase (GTP-bound) - importin-beta complex; cell-free CFP-Ran/YFP-importin-beta FRET ratio; inhibition, % (concentration not given with the values); 1.1% of 300,000 active; AID 2216, 2009;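 active = most replicates above 15%; inconclusive = exactly half above 15%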;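 also: 0% = DMSO wells and 100% = Ran loaded with GDP instead of GTP; wells of about 40 µL received 100 nL stock; the first replicate is given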
Calb FLC: C. albicans growth inhibition with fluconazole, primary screen, CaCi-2 strain, Alamar Blue fluorescence | AID 1979, 2009 | 0.57% of 300,000 active | growth inhibition, % (test concentration not listed) | C. albicans CaCi-2 (fluconazole-resistant clinical isolate) + fluconazole, 48 h;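 active = most replicates above 75%; inconclusive = exactly half above 75%; inactive = most below 75%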;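 also: all wells also contain fluconazole at 8 µg/ml as a sub-toxic cotreatment; 0% = median of DMSO wells and 100% = median of geldanamycin control wells; wells of about 8 µL received 7.5 nL stock; the first replicate is given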
Ecoli rRNA inh OD600: also measured in Ecoli rRNA inh; calls as there; OD600 change, %; measured here: OD600 growth;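 optical density of the mix in the first replicate; 0 = DMSO median and -100 = no signal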
Ecoli rRNA inh RFP: also measured in Ecoli rRNA inh; calls as there; RFP signal change, %; measured here: RFP humanized mutant strains;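 first replicate; 0 = DMSO median and -100 = no signal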
Active calls of the source: *; i = inactive; ? = inconclusive; / = not tested or not shown; + = active, no number; & = joins results of further samples.

SMILES	Beta cell apopt	MLL AF4-AF9 inh	ALR inh	T cruzi inh	Ecoli rRNA inh	Ecoli rRNA inh OD600	Ecoli rRNA inh RFP	FGF22 binding	RanGTP-Impb inh	Calb FLC
C/C(=N\NC(=O)CN(c1ccccc1)S(=O)(=O)c1ccccc1[N+](=O)[O-])C(C)(C)C	-1	8.8	5	-13	6	16	0.0	i	1.1	-3
COc1cccc(OCC(=O)Nc2ccccc2NC(C)=O)c1	-1	/	-4	-3	/	/	/	/	2.3	-5
O=C(Nc1cccc(-c2cn3ccccc3n2)c1)c1cc2ccccc2oc1=O	9	5.8	-5	26	3	10	6.1	i	2.4	-16
O=C(NC12CC3CC(CC(C3)C1)C2)c1ccccc1	1	-2.7	-3	5	9	7	-1.9	i	?	3
O=C(COc1ccc(Br)cc1)N/N=C1\SCC(=O)N1c1ccc(F)cc1	-16	/	41	8	/	/	/	/	-3.4	-17
COc1ccccc1NS(=O)(=O)c1cccc(N2CC(O)=C(c3ccccc3)C2=N)c1	0	2.9	/	6	-2	-1	0.0	i	-2.4	-1
CCC/C(O)=C1\C(=O)CC(C)(C)CC1=Nc1ccc(OC)cc1	5	-3.2	/	11	-14	-16	-0.2	i	0.6	11
O=C(c1ccccc1)c1ccc(Cn2cc(CCCO)nn2)cc1	21	-1.5	-9	-30	-3	10	-4.0	i	-5.7	-7
CCC(C)NCCOc1ccccc1C (stereo not drawn)	-3	-2.0	-6	6	17	6	-2.0	i	0.6	-2
Cc1c(C(=O)COC(C)(C)C)[nH]c2ccccc12	2	/	-5	4	/	/	/	/	7.0	11
Cc1nn(-c2ccccc2)c(N2CCCC2)c1/C=N/Nc1ccc(S(N)(=O)=O)cc1[N+](=O)[O-]	8	13	/	46	/	/	/	i	7.3	22
Cc1cccc(CCNC(=O)C2CCN(S(=O)(=O)c3cccc4nsnc34)CC2)c1	1	-34	/	-57	10	6	1.7	i	3.7	2
O=C(Nc1ccccc1C(=O)NC(Cc1ccccc1)C(=O)O)c1ccco1 (stereo not drawn)	-1	-3.3	-2	-9	9	6	-2.9	i	-0.1	-7
Cc1ccc(C)c(NC(=O)C2CC(O)CN2C(=O)Oc2ccccc2)c1 (stereo not drawn)	-4	-1.7	/	-2	4	7	-1.8	i	-3.5	-2
Cc1c(OCC(=O)NCC(O)c2ccccc2)ccc2c3c(c(=O)oc12)CCCC3 (stereo not drawn)	9	-6.3	0	33	-4	-9	0.5	i	-0.7	-4
c1cc(-c2cccs2)nc(-c2cccs2)c1	2	-2.4	0	-3	2	-1	8.9	i	-1.8	-11
Cc1sc2ncnc(SCC(=O)NC(C)C(C)C)c2c1C (stereo not drawn)	-6	-0.6	6	8	1	2	-3.4	i	0.3	1
NCc1cccc(-n2cccn2)c1	3	/	-9	-11	/	/	/	/	2.7	-3
COc1ccccc1CNC(=O)CCNC(=O)Cn1ccc2ccccc2c1=O	-1	/	-4	-4	/	/	/	/	-0.8	-12
CC(C)C(=O)N1N=C(c2ccc(NS(C)(=O)=O)cc2)CC1c1cccs1 (stereo not drawn)	-9	1.7	-10	11	-11	0	-1.8	i	5.6	-1
COc1ccccc1C(=O)Nc1sc2c(c1C(N)=O)CCCC2	13	-23	/	16	2	15	-3.3	i	-0.9	0
CC(=O)NCCNC(=O)c1ccc(Cn2c(=O)[nH]c3ccsc3c2=O)cc1	-7	-0.6	-9	-25	12	13	1.8	i	8.3	-4
CCOc1ccc(NC(=O)Cn2nnc3c(cnn3-c3ccc(F)cc3)c2=O)cc1	1	1.3	1	2	4	6	0.4	i	-4.1	2
CN1CCN(c2ccc(C(CC(N)=O)NC(=O)c3ccccc3)cc2[N+](=O)[O-])CC1 (stereo not drawn)	-10	/	2	-6	3	6	-1.7	i	-1.7	3
O=c1[nH]c2ccccc2c(O)c1O	-7	-2.8	/	-24	/	/	/	i	1.4	9
SMILES	Beta cell apopt	MLL AF4-AF9 inh	ALR inh	T cruzi inh	Ecoli rRNA inh	Ecoli rRNA inh OD600	Ecoli rRNA inh RFP	FGF22 binding	RanGTP-Impb inh	Calb FLC
CC(=O)Nc1nnc(-c2ccco2)o1	-7	-2.8	/	-22	9	12	0.1	/	1.4	4
CC(C)C(NS(=O)(=O)c1cccs1)C(=O)Nc1nc(C(C)(C)C)cs1 (stereo not drawn)	0	1.3	-4	6	-4	1	3.3	i	-2.2	-11
COc1ccc(S(=O)(=O)N(C)C[C@H]2Oc3c(NS(=O)(=O)c4ccc(F)cc4)cccc3C(=O)N([C@H](C)CO)C[C@@H]2C)cc1	-10	-3.8&-1.2	0	/	0&-1	-1&-10	1.2&3.6	i	/	/
NC(=O)c1ccc[n+](CC(=O)Nc2ccccc2C(=O)O)c1	-7	-0.7	6	-16	8	20	2.2	i	2.4	-4
CCN(CC)C(=O)CC(c1ccc(F)cc1)c1ccc(OC)cc1 (stereo not drawn)	-7	/	-4	-2	/	/	/	/	0.3	-18
Cc1cc(-c2nnc(SCC(=O)Nc3ccc(S(N)(=O)=O)cc3)n2N)n[nH]1	-4	-7.0	-1	31	8	9	-0.9	i	0.8	16
O=C1NCCn2ccc(=O)cc21	6	-7.5	/	1	9	5	-1.3	i	3.2	-1
O=C1NN(c2ccccc2)C(=O)/C1=C/c1ccc(Sc2cccc3ccccc23)o1	-37	/	0	-24	/	/	/	/	-0.4	-1
CC(=O)Nc1ccc2c(c1)nc(CCNC(=O)c1ccco1)n2C	0	1.4	3	-26	4	10	0.2	i	0.0	-3
Cc1ccc(/C=N/NC(=O)c2cc(C)oc2C)cc1	1	1.9	-10	9	/	/	/	i	-2.8	3
Cc1cccc(NS(=O)(=O)c2cc3c(cc2C)NC(=O)CO3)c1	-6	1.9	6	2	-18*	-12*	8.3*	i	5.1	-5
COc1ccc(C(=O)OCC(=O)NCCN2C(=O)CSC2=O)cc1	1	-0.9	0	-3	-3	8	-3.8	i	0.2	-8
Cc1ccc(OCCCN(C)C)c(Br)c1	-6	/	-18	26	/	/	/	/	-1.6	-8
CCN(C(=O)CSc1nc(N)cc(=O)[nH]1)C1CCS(=O)(=O)C1 (stereo not drawn)	-3	-16	-3	/	11	17	0.2	i	/	/
COc1ccc(/C=N/Nc2nc(Nc3ccccc3)nc(N3CCCCC3)n2)c(OC)c1	6	/	/	51	/	/	/	/	-1.6	?
Cc1cc(C)c(C(N)=O)c(NC(=O)Nc2ccccc2)n1	2	/	-22	-7	/	/	/	/	2.8	48
COc1ccc(F)cc1S(=O)(=O)n1cc(C)nc1-c1ccccc1	/	/	0	-12	/	/	/	/	1.7	33
COc1ccc(CC/C(C)=N\NC(N)=O)cc1	-5	0.3	4	-2	15	2	-2.8	i	0.1	41
COc1ccc(C(=O)OCC(O)COC(=O)c2ccc(OC)cc2)cc1	-5	-3.6	-17	-22	-25	-33	-3.3	i	11	-2
NC(=O)CSc1nnc(-c2ccoc2)o1	0	/	/	2	/	/	/	/	4.6	11
CCc1noc(C)c1C(=O)Nc1ccc(C)c(S(=O)(=O)N2CCCCCC2)c1	5	-7.6	-11	2	-2	-30	-2.7	i	1.9	0
NC(=O)/C(N=Nc1ccccc1)=N/Nc1ccccc1	-4	-0.1	-40	-2	3	17	-1.1	i	1.2	-5
CCn1c(=O)c2ccccc2n2c(SCC(N)=O)nnc12	-3	-5.0	-15	-8	12	12	3.1	i	1.8	-4
COc1cc(C)c(Cl)cc1S(=O)(=O)n1ccnc1	-9	-1.5	-6	-7	5	10	-0.7	i	?	-17
C=CCOc1ccc(C2/C(=C(/O)c3ccc4c(c3)CC(C)O4)C(=O)C(=O)N2CCCN2CCOCC2)cc1 (stereo not drawn)	-4	0.3	35	-4	8	12	3.1	i	-0.3	-2
SMILES	Beta cell apopt	MLL AF4-AF9 inh	ALR inh	T cruzi inh	Ecoli rRNA inh	Ecoli rRNA inh OD600	Ecoli rRNA inh RFP	FGF22 binding	RanGTP-Impb inh	Calb FLC
COC(=O)Cn1c(=NC(=O)CSCC(=O)Nc2cc(C)on2)sc2cc(C(=O)OC)ccc21	1	-19	3	-1	2	9	-4.2	i	-0.9	1
C#Cc1ccc([C@@H]2C=C(C(=O)NC3CC3)O[C@H](OCc3ccc(CO)cc3)C2)cc1	/	/	-1	-4	/	/	/	/	-0.5	14
S=c1sc2c(N3CCN(Cc4ccccc4)CC3)ncnc2n1-c1ccccc1	1	/	1	1	/	/	/	/	1.2	-2
CCOc1cnc(-c2ccc(OC)cc2)o1	-5	/	-24	-15	/	/	/	/	0.6	3
COc1ccc2[nH]cc(/C=C/C(=O)c3ccccc3)c2c1	6	9.3	57	11	-31	-48	-0.8	i	25*	2
CCN(C1CCCCC1)S(=O)(=O)c1ccc(S(=O)(=O)N(CC(=O)Nc2ccccc2)C2CC2)cc1	15	/	-4	55*	/	/	/	/	4.7	8
COc1ccc(C(=O)Nc2ccccc2C(=O)Nc2cccc(C)n2)cc1	16	-6.2	-5	-3	-1	12	-3.0	i	1.0	-15
COCc1nnc(NS(=O)(=O)c2ccc([N+](=O)[O-])cc2)s1	0	/	-17	-4	/	/	/	/	-2.3	6
CC(C)c1cc(Br)ccc1OCCCN1C(=O)NC(C)(C)C1=O	4	/	6	24	/	/	/	/	?	13
Cc1ccc(OCC(=O)Nc2c(C)ccc3nsnc23)cc1	1	0.9	0	13	12	7	1.4	i	2.2	-2
Cc1ccc(Cn2c3ccccc3c3cn[nH]c(=O)c32)cc1	-5	-0.3	-1	10	3	4	0.0	i	0.4	2
CCOc1ccc2[nH]c3c(c2c1)CNCC3	-5	21	-14	10	-5	0	-1.0	i	-1.8	3
Oc1[nH]c2ccc(Br)cc2c1N=NC(=S)Nc1ccc(F)cc1	29	-38	/	59*	5	13	4.1	i	0.0	67
c1ccc(-c2ccccc2OCCN2CCOCC2)cc1	0	9.6	-11	-12	5	-6	-12	i	1.9	-20
COC(=O)CSc1ncc(C#N)c(N)n1	-8	/	/	-7	/	/	/	/	-1.5	1
CC(=O)Oc1ccc(-c2cccc(C(=O)NCCO)c2)cc1	0	-0.7	13	-8	9	8	-1.6	i	-1.0	?
CCn1nc(C(=O)Nc2nc3ccccc3[nH]2)c2ccccc2c1=O	7	/	/	4	/	/	/	/	4.0	-6
CN(Cc1ccccc1)C(=O)COC(=O)c1ccc2ccccc2n1	-1	-0.4	2	-4	-17	-15	-2.3	/	3.3	18
COc1ccc(NC(=S)NNC(=O)CNc2ccc(Cl)cc2)cc1	-2	1.0	32	-9	-30	-43	7.9	+	/	/
COc1cc(C(CC(=O)Nc2cc(C)ccn2)N2Cc3ccccc3C2=O)cc(OC)c1OC (stereo not drawn)	-3	-0.4	-19	-8	3	10	1.3	i	2.9	2

Not all compounds are listed; rates above refer to the full screens.
